UUG fidelity – modulators of yeast start codon fidelity, primary screen, whole organism, S. cerevisiae, single point, plate reader; 350,000 tested, 0.13% active; activity score, % at 18.7 µM; S. cerevisiae UUG-firefly luciferase reporter, luminescence/redox ratio;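 active means replicate mean at a twofold rise or more, about +100% in these data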;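 further: firefly luciferase made from a UUG start codon reports start codon fidelity; reporter light over untreated wells divided by growth signal over untreated wells; some hits fall short of that in this replicate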
HIV Env fusion – inhibitors of HIV-1 Env-driven cell-cell fusion, primary screen, HeLa-JRFL effector, CEM21 target cells, luciferase | 360,000 tested, 1.1% active | inhibition, % at 12.3 µM;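 active means mean replicate inhibition score of at least 50 and every replicate individually at or above 50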;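 further: 0% = plate neutral controls and 100% = maraviroc near 300 nM; one replicate is shown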
Active calls of the source: *; [ ] = another dose, or the depositor's remark. Only part of the results is shown; rates above refer to the full screens.

Results follow in this order: HIV Env fusion	UUG fidelity
Cc1noc(C)c1NC(=O)N(C)C[C@@H]1Oc2ccc(NC(=O)Nc3ccc(C(F)(F)F)cc3)cc2CC(=O)N([C@@H](C)CO)C[C@H]1C
    -2.2[16.7 µM]	1.4
C[C@@H]1CCCCO[C@@H](CN(C)C(=O)C2CCCCC2)[C@H](C)CN([C@H](C)CO)C(=O)c2cc(NC(=O)CCCN(C)C)ccc2O1
    8.7[16.7 µM]	2.9
CCCC(O)C#Cc1cnc2c(c1)C(=O)N([C@H](C)CO)C[C@H](C)[C@H](CN(C)S(=O)(=O)c1ccc(OC)cc1)O2 (stereo partly drawn)
    15.2[16.7 µM]	4.3
C[C@H](CO)N1C[C@H](C)[C@H](CN(C)Cc2ccc(F)cc2)Oc2ncc(-c3cncnc3)cc2C1=O
    -10.9[16.7 µM]	8.3
COc1ccc(C#Cc2cnc3c(c2)C(=O)N([C@H](C)CO)C[C@H](C)[C@@H](CN(C)C(=O)c2ccccc2F)O3)cc1
    -5.8[16.7 µM]	12.6
C[C@H]1CN([C@@H](C)CO)C(=O)c2cc(-c3ccccc3F)cnc2O[C@H]1CN(C)C(=O)CN(C)C
    -21.7[16.7 µM]	-12.5
CC(C)C#Cc1ccc2c(c1)O[C@@H](CN(C)S(C)(=O)=O)[C@@H](C)CN([C@@H](C)CO)S2(=O)=O
    -5.1[16.7 µM]	12.3
C[C@@H]1CN([C@H](C)CO)C(=O)c2cc(C#CCC3CCCC3)cnc2O[C@@H]1CN(C)Cc1ccccn1
    19.5[16.7 µM]	-23.5
C[C@@H]1CCCCO[C@H](CN(C)C(=O)c2ccccc2)[C@H](C)CN([C@H](C)CO)C(=O)c2cc(NC(=O)C3CCCCC3)ccc2O1
    -10.1[16.7 µM]	17.5
C[C@H](CO)N1C[C@H](C)[C@@H](CN(C)S(C)(=O)=O)Oc2ccc(NS(=O)(=O)c3ccc(Cl)cc3)cc2CC1=O
    -16.3[16.7 µM]	4.5
Cc1ccc(S(=O)(=O)N(C)C[C@H]2OCCCC[C@H](C)Oc3ccc(NC(=O)NC(C)C)cc3C(=O)N([C@@H](C)CO)C[C@H]2C)cc1
    -11.2[16.7 µM]	3.4
C[C@@H]1CN([C@H](C)CO)C(=O)c2cc(NC(=O)c3ccncc3)ccc2O[C@@H]1CN(C)S(C)(=O)=O
    -10.4[16.7 µM]	-14.8
CCCNC(=O)C[C@@H]1CC[C@H]2[C@H](COc3ccc(NC(=O)c4ccc(OC)cc4)cc3C(=O)N2C)O1
    8.5[16.7 µM]	5.1
C[C@@H]1CN([C@H](C)CO)C(=O)c2cc(NS(=O)(=O)c3cccs3)ccc2O[C@@H](C)CCCCO[C@@H]1CN(C)CC1CCCCC1
    1.4[16.7 µM]	22.7
C[C@H](CO)N1C[C@H](C)[C@@H](CN(C)Cc2ccncc2)Oc2c(NC(=O)C3CCOCC3)cccc2C1=O
    -21.1[16.7 µM]	-0.7
Cc1ccccc1S(=O)(=O)NCC[C@H]1CC[C@@H](NC(=O)C2CCOCC2)[C@@H](CO)O1
    -2.7[16.7 µM]	22.2
Cc1noc(C)c1NC(=O)N(C)C[C@H]1Oc2ccc(NC(=O)CCC(F)(F)F)cc2CC(=O)N([C@H](C)CO)C[C@@H]1C
    11.8[16.7 µM]	7.9
COc1cccc(-c2cnc3c(c2)C(=O)N([C@@H](C)CO)C[C@@H](C)[C@@H](CN(C)Cc2ccc(F)cc2)O3)c1
    30.9[16.7 µM]	7.7
Cc1ccc(S(=O)(=O)Nc2cccc3c2O[C@H](CN(C)C(=O)NC2CCCCC2)[C@H](C)CN([C@H](C)CO)C3=O)cc1
    -71.1[16.7 µM]	-2.3
C[C@@H]1CN([C@H](C)CO)C(=O)c2cc(-c3ccccc3)cnc2O[C@H]1CN(C)C(=O)c1cccc(F)c1
    -8.3[16.7 µM]	0.8

Next results:
Results follow in this order: HIV Env fusion	UUG fidelity
CO[C@@H]1CN(C)C(=O)c2cc(NC(=O)Nc3ccc(F)cc3)ccc2OC[C@@H](C)N(C(=O)c2cnccn2)C[C@H]1C
    14.3[16.7 µM]	16.6
COCC#Cc1ccc2c(c1)O[C@H](CN(C)C(=O)C1CCC1)[C@H](C)CN([C@H](C)CO)S2(=O)=O
    4.6[16.7 µM]	-1.1
C[C@H]1CN([C@@H](C)CO)C(=O)c2cc(NC(=O)C3CCCCC3)ccc2O[C@@H]1CN(C)Cc1ccncc1
    55.1*[16.7 µM]	-9.1
C[C@@H]1CN([C@@H](C)CO)C(=O)c2cc(-c3ccc(C#N)cc3)cnc2O[C@@H]1CN(C)C(=O)Nc1ccccc1
    5.8[16.7 µM]	11.6
CCNC(=O)C[C@H]1CC[C@H]2[C@@H](COc3ccc(NC(=O)Nc4ccccc4F)cc3C(=O)N2C)O1
    1.7[16.7 µM]	0.1
CC(C)CC#Cc1ccc2c(c1)O[C@@H](CN(C)Cc1cncnc1)[C@@H](C)CN([C@@H](C)CO)S2(=O)=O
    -11.0[16.7 µM]	-10.0
COc1ccc(S(=O)(=O)N(C)C[C@@H]2Oc3ccc(NC(=O)NC4CCCCC4)cc3CC(=O)N([C@@H](C)CO)C[C@@H]2C)cc1
    -7.3[16.7 µM]	-5.0
C[C@@H]1CN([C@H](C)CO)C(=O)Cc2cc(NC(=O)Nc3ccc(F)cc3)ccc2O[C@@H]1CN(C)S(=O)(=O)c1ccccc1
    -16.4[16.7 µM]	4.1
C[C@H](CO)N1C[C@H](C)[C@H](CN(C)CC2CC2)Oc2ccc(NS(=O)(=O)c3ccccc3)cc2C1=O
    8.6[16.7 µM]	-2.0
O=C(Nc1cccc(Cl)c1)N[C@H]1CC[C@H](CCNC(=O)C2CCC2)O[C@H]1CO
    0.8[16.7 µM]	-6.1
COc1ccc(NC(=O)N(C)C[C@H]2Oc3ccc(NS(=O)(=O)c4c(C)noc4C)cc3CC(=O)N([C@@H](C)CO)C[C@H]2C)cc1
    -39.3[16.7 µM]	1.5
O=C(CCN1CCCCC1)N[C@H]1CC[C@H](CCn2cc(-c3cccc(F)c3)nn2)O[C@@H]1CO
    4.2[16.7 µM]	-4.5
N#C[C@H]1[C@@H](c2ccc(-c3ccccc3)cc2)[C@H](CO)N1C(=O)Cc1ccccc1
    2.7[16.7 µM]	-16.1
CC(C)NC(=O)N(C)C[C@@H]1Oc2ccc(NS(C)(=O)=O)cc2C(=O)N([C@@H](C)CO)C[C@H]1C
    9.2[16.7 µM]	1.8
COc1ccc(S(=O)(=O)Nc2ccc3c(c2)C(=O)N([C@H](C)CO)C[C@@H](C)[C@@H](CN(C)C(=O)C2CCCCC2)OCCCC[C@H](C)O3)cc1
    2.9[16.7 µM]	10.8
CN1CCN(C(=O)C[C@@H]2CC[C@H]3[C@@H](COC[C@H](O)CN3Cc3cccc(F)c3)O2)CC1
    7.3[16.7 µM]	20.3
CCCNC(=O)C[C@@H]1CC[C@H]2[C@H](COc3ccc(NC(=O)CC)cc3C(=O)N2C)O1
    -7.1[16.7 µM]	-8.1
CCCNC(=O)N(C)C[C@@H]1Oc2cc(C#Cc3ccccn3)ccc2S(=O)(=O)N([C@@H](C)CO)C[C@H]1C
    -34.4[16.7 µM]	-1.6
CN(C)CC(=O)N[C@@H]1CC[C@@H](CCn2cc(CN(C)C)nn2)O[C@@H]1CO
    -18.6[16.7 µM]	-12.0
O=C1O[C@@H](c2ccccc2)[C@@H](c2ccccc2)N2[C@@H](c3ccc(O)cc3)[C@]3(C(=O)Nc4ccc(C#CC5(O)CCCCCC5)cc43)[C@@H](C(=O)NC[C@H](O)c3ccccc3)[C@H]12
    8.8[16.7 µM]	3.8

Quoted from the listing:
Reading for COc1ccc(S(=O)(=O)Nc2ccc3c(c2)C(=O)N([C@H](C)CO)C[C@@H](C)[C@@H](CN(C)C(=O)C2CCCCC2)OCCCC[C@H](C)O3)cc1 in UUG fidelity: 10.8
Reading for CCCNC(=O)C[C@@H]1CC[C@H]2[C@H](COc3ccc(NC(=O)CC)cc3C(=O)N2C)O1 in UUG fidelity: -8.1
Reading for CC(C)NC(=O)N(C)C[C@@H]1Oc2ccc(NS(C)(=O)=O)cc2C(=O)N([C@@H](C)CO)C[C@H]1C in UUG fidelity: 1.8

Additional records follow:
Results follow in this order: HIV Env fusion	UUG fidelity
COCC(=O)N1C[C@H](C)[C@@H](OC)CN(C)C(=O)c2cc(NC(=O)c3ccc(OC)cc3)ccc2OC[C@H]1C
    -1.0[16.7 µM]	14.7
COc1ccc(NC(=O)N(C)C[C@H]2Oc3ccc(NC(=O)c4ccncc4)cc3CC(=O)N([C@@H](C)CO)C[C@@H]2C)cc1
    -10.4[16.7 µM]	-6.1
O=C(N[C@H]1CC[C@@H](CCNC(=O)C2CCC2)O[C@H]1CO)c1ccncc1
    4.1[16.7 µM]	8.0
C[C@@H]1CN([C@H](C)CO)C(=O)c2cc(NS(=O)(=O)c3ccc(Cl)cc3)ccc2O[C@@H](C)CCCCO[C@@H]1CN(C)S(=O)(=O)c1ccc(F)cc1
    -38.3[16.7 µM]	3.2
Cc1cccc(S(=O)(=O)N[C@H]2CC[C@@H](CCNC(=O)Nc3cc(F)ccc3F)O[C@@H]2CO)c1
    7.5[16.7 µM]	6.4
C[C@@H]1CN([C@@H](C)CO)C(=O)Cc2cc(NC(=O)NC3CCCCC3)ccc2O[C@H]1CN(C)Cc1ccc(C(F)(F)F)cc1
    20.3[16.7 µM]	4.4
O=C(C[C@H]1CC[C@H](NC(=O)Nc2ccc3c(c2)OCO3)[C@@H](CO)O1)NCc1ccc2c(c1)OCO2
    5.8[16.7 µM]	-5.6
C[C@H]1CN([C@@H](C)CO)C(=O)CCCn2cc(nn2)CO[C@@H]1CN(C)S(=O)(=O)c1ccccc1F
    9.2	-2.7
COc1ccc(C(=O)Nc2ccc3c(c2)OC[C@H](C)NC[C@@H](C)[C@@H](OC)CN(C)C3=O)cc1
    20.5[16.7 µM]	-7.8
C[C@H](CO)N1C[C@H](C)[C@@H](CN(C)Cc2ccncc2)Oc2ccc(NC(=O)Nc3ccccc3)cc2CC1=O
    0.4[16.7 µM]	7.3
C[C@@H]1CCCCO[C@H](CN(C)S(=O)(=O)c2cn(C)cn2)[C@H](C)CN([C@@H](C)CO)C(=O)c2cc(N(C)C)ccc2O1
    12.3[16.7 µM]	8.2
C[C@@H]1CN([C@@H](C)CO)S(=O)(=O)c2ccc(C#Cc3cccc(F)c3)cc2O[C@H]1CN(C)C(=O)CN1CCOCC1
    10.4[16.7 µM]	40.1
C[C@@H]1CN([C@@H](C)CO)C(=O)c2cc(NS(C)(=O)=O)ccc2O[C@@H](C)CCCCO[C@@H]1CN(C)C(=O)Nc1ccc2c(c1)OCO2
    -14.2[16.7 µM]	0.3
CN(C)CC(=O)Nc1ccc2c(c1)[C@@H]1C[C@@H](CC(=O)N3CCOCC3)O[C@@H](CO)[C@@H]1O2
    4.4[16.7 µM]	-12.5
C[C@@H]1CCCCO[C@@H](CN(C)Cc2ccc(C(=O)O)cc2)[C@@H](C)CN([C@H](C)CO)C(=O)c2cc(NC(=O)Nc3ccccc3)ccc2O1
    -21.7[16.7 µM]	8.6
Cc1noc(C)c1S(=O)(=O)Nc1ccc2c(c1)C(=O)N([C@H](C)CO)C[C@@H](C)[C@@H](CN(C)C(=O)C1CCCCC1)OCCCC[C@H](C)O2
    1.5[16.7 µM]	-6.8
C[C@@H]1CN([C@H](C)CO)C(=O)c2cc(-c3ccncc3)cnc2O[C@H]1CN(C)C(=O)CN1CCOCC1
    8.1[16.7 µM]	-9.0
C[C@@H]1CCCCO[C@@H](CN(C)C(=O)c2ccccc2)[C@H](C)CN([C@@H](C)CO)C(=O)c2cc(NC(=O)C3CCCCC3)ccc2O1
    11.6[16.7 µM]	7.9
C[C@@H]1CN([C@H](C)CO)C(=O)c2cc(NC(=O)Nc3ccc4c(c3)OCO4)ccc2O[C@@H]1CN(C)C(=O)Nc1ccc(F)cc1
    17.7[16.7 µM]	-1.8
C[C@@H]1CN([C@H](C)CO)C(=O)c2cccc(NS(C)(=O)=O)c2O[C@@H]1CN(C)S(=O)(=O)c1ccccc1
    3.0[16.7 µM]	-8.1

(list continues)
Results follow in this order: HIV Env fusion	UUG fidelity
C[C@H](CO)N1C[C@H](C)[C@@H](CN(C)Cc2ccc(Cl)c(Cl)c2)Oc2c(NC(=O)c3nc4ccccc4s3)cccc2C1=O
    7.6[16.7 µM]	0.9
C[C@@H]1CN([C@@H](C)CO)S(=O)(=O)c2ccc(C#CC3CC3)cc2O[C@@H]1CN(C)CC1CCOCC1
    -13.9[16.7 µM]	1.0
C[C@H](CO)N1C[C@H](C)[C@@H](CN(C)CC2CCCCC2)Oc2ccc(NC(=O)C3CCCCC3)cc2CC1=O
    5.7[16.7 µM]	9.0
CCCNC(=O)N(C)C[C@H]1Oc2cc(-c3ccncc3)ccc2S(=O)(=O)N([C@H](C)CO)C[C@H]1C
    -10.2[16.7 µM]	-18.5
C[C@@H]1CCCCO[C@@H](CN(C)CC2CCCCC2)[C@H](C)CN([C@H](C)CO)C(=O)c2cc(NC(=O)C3CCCCC3)ccc2O1
    68.4*[16.7 µM]	7.5
COC(=O)C[C@@H]1C[C@@H]2c3cc(NC(=O)NC4CCCCC4)ccc3O[C@@H]2[C@@H](CO)O1
    -12.8[16.7 µM]	-6.8
C[C@@H]1CN([C@@H](C)CO)C(=O)c2cc(NC(=O)Nc3cccc4ccccc34)ccc2O[C@H]1CN(C)C(=O)Nc1ccc2c(c1)OCO2
    -5.1[16.7 µM]	-8.3
C[C@@H]1CN([C@@H](C)CO)C(=O)c2cc(C#C[C@@H](C)O)cnc2O[C@@H]1CN(C)Cc1cccc(C(=O)O)c1
    -10.5[16.7 µM]	-3.2

Bioassay records as filed in PubChem BioAssay.
